Screening data from PubChem BioAssay.
CBX7 AlphaScr: CBX7 chromodomain binding inhibitors, primary screen, biochemical, AlphaScreen. Chromobox protein homolog 7 (Homo sapiens), O95931. normalised signal (fraction of DMSO) (concentration not given with the values). 66,000 compounds, 1.1% hits. AID 1224903, 2016. AlphaScreen His6-CBX7 / biotin-H3K27me3 peptide binding; stronger effect = lower value; in the data active = normalised signal below about 0.5;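 note: 100 nL library stock added to about 20 µL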
Target sequence (O95931 whole entry, looked up): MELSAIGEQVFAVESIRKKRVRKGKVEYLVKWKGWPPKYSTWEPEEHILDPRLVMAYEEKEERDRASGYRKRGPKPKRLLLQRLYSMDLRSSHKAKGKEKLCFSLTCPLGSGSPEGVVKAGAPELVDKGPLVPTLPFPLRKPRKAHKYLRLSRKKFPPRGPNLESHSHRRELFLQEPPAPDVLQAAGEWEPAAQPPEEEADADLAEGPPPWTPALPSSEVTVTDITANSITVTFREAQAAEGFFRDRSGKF
CBX7 AlphaScr z-score: second read-out of CBX7 AlphaScr, no call of its own (marks repeat the call); z-score; measured here: z-score of CBX7 signal; some inactives read as strong as hits; reference of the scale not given here;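 same signal on another scale; lower means less binding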
* hit, by the source's call. Not all compounds are listed. The share of hits here may be higher or lower than overall.

compound | CBX7 AlphaScr | CBX7 AlphaScr z-score
COc1ccccc1CN1C(=O)Cn2cccc2C1C(=O)NC1CCCC1 (configuration not stated) | 1.17 | 1.02
Cc1ccc(CCN2CC(C(=O)NCc3ccccc3Cl)CC2=O)cc1 (configuration not stated) | 1.04 | 0.772
Cc1oc(-c2ccc(Cl)cc2)nc1CSCC(=O)NCCC(C)C | 1.02 | 0.173
FC(F)(F)C(F)(F)C(F)(F)c1nnc2ccc(N3CCOCC3)nn12 | 0.994 | -0.103
CN(Cc1ccccc1)C(=O)C1CCN(C(=O)c2cnn(-c3ccccc3)c2-n2cccc2)CC1 | 1.02 | 0.812
O=C1c2ccccc2C(Nc2ccc(Br)cc2)N1c1cccnc1 (configuration not stated) | 1.05 | 0.822
CCn1cc(C(=O)NC2CCCCCC2)c(=O)c2ccc(C)nc21 | 1.03 | 0.348
COc1ccc(-c2cc3nc(C)c(CCC(=O)N4CCCCC4)c(C)n3n2)c(OC)c1 | 1.07 | 0.758
O=C(c1n[nH]c(=O)c2ccccc12)N1CCN(c2ccc(F)cc2)CC1 | 1.02 | 0.118
Cc1nc(NC2CCCC(C)C2C)c2c(C)c(C)sc2n1 (configuration not stated) | 1 | 0.0258
CC(C)(C)NC(=O)CCNS(=O)(=O)c1ccc2c(c1)CCC(=O)N2 | 1.04 | 1.55
CC1(C(=O)NCC2CCCO2)CCC(=O)N1Cc1cccs1 (configuration not stated) | 1.1 | 1.7
Fc1ccc(Nc2nc(-c3cccnc3)nc3ccccc23)cc1 | 1.05 | 1.22
CCOc1ccc(-n2c(Cc3cc(=O)[nH]c(=O)[nH]3)nnc2SCC(=O)N2CCC(C)CC2)cc1 | 0.851 | -2.27
Cc1ccc(NC(=O)N(CCN(C)C)C(C)c2ccncc2)cc1C (configuration not stated) | 1.02 | 0.659
COc1ccc(-c2cc(C(=O)Nc3ccc(F)cc3F)no2)cc1OC | 0.988 | -0.165
COc1cccc(NC(=O)CCc2c(C)nc3cc(-c4cccc(F)c4)nn3c2C)c1 | 0.965 | -0.689
O=C(O)CN1C(=O)C(Cc2ccco2)NC(=O)C1c1ccc(Cl)cc1 (configuration not stated) | 0.95 | -1.08
CC(=O)Nc1nnc(Cc2c[nH]c3ccccc23)s1 | 1.01 | 0.035
COc1ccc(Cn2c(=O)[nH]c3cc(C(=O)NCc4ccccn4)ccc3c2=O)cc1 | 0.988 | -0.3

More structures.
compound | CBX7 AlphaScr | CBX7 AlphaScr z-score
Cc1ccc(NC(=O)C(NS(=O)(=O)c2ccc3c(c2)CCC(=O)N3)c2ccccc2)cc1Cl (configuration not stated) | 0.994 | -0.0357
Nc1nonc1-c1noc(-c2ccc(Br)cc2)n1 | 1.08 | 0.806
COc1ccc(C2C(=O)N(C3CCC(C)CC3)CC(=O)N2C2CCCCCCC2)cc1OC (configuration not stated) | 0.854 | -0.41
CC1CCC(N2C(=O)CN(C3CCCCC3)C(=O)C2c2ccc(Cl)cc2)CC1 (configuration not stated) | 1.02 | 0.0985
COc1ccc(C(=O)N2CC(=O)Nc3ccc(C)cc3C2c2ccc(F)cc2)cc1OC (configuration not stated) | 0.971 | -0.4
CCc1ccc(C2CC(c3cccc(OC)c3OC)n3ncnc3N2)cc1 (configuration not stated) | 1 | 0.0897
COc1ccccc1CN1C(=O)c2ccccc2C1C(=O)NC1CCCC1 (configuration not stated) | 1.02 | 0.921
CCN(CC)S(=O)(=O)c1ccc(-c2csc(Nc3ccc(F)cc3)n2)cc1 | 0.782 | -1.56
c1ccc(Oc2ccc(-c3[nH]c(-c4ccccc4)nc3-c3ccccc3)cc2)cc1 | 0.466* | -2.11*
CCCOC(=O)c1ccc(-c2n[nH]c(=O)c3ccccc23)cc1 | 1.15 | 2.76
O=C(Cc1c(C(=O)O)[nH]c2ccccc12)NCc1ccc(F)cc1Cl | 1.03 | 0.969
Cc1cc(Br)ccc1NS(=O)(=O)c1ccc2c(c1)CCN2C(=O)C1CC1 | 0.982 | -0.513
COc1ccc(NC(=O)c2cnn3cccnc23)cn1 | 1.15 | 1.43
COc1ccc(-c2nnc(NC(=O)c3ccc(S(=O)(=O)N4CCCC(C)C4)cc3)o2)cc1 (configuration not stated) | 0.726 | -6.18
COc1cccc(-c2cc(C(=O)Nc3ccc(S(N)(=O)=O)cc3)c3ccccc3n2)c1 | 0.971 | -0.867
Cc1c(NC(=O)c2ccc(OC(C)C)cc2)cccc1-c1nc2ncccc2o1 | 0.821 | -1.95
CCNC(=O)CC1C(=O)N(c2ccccc2)C(=O)N1Cc1ccc2c(c1)OCO2 (configuration not stated) | 1 | 0.083
CC(C)c1ccc(NC(=O)C(NC(=O)c2cnccn2)c2ccccc2)cc1 (configuration not stated) | 0.83 | -1.72
CCc1cccc(NC(=O)C2c3ccccc3C(=O)N3CCc4ccccc4C23)c1 (configuration not stated) | 0.967 | -0.0332
CCCNC(=O)c1cnn2c(C)c(Cc3ccc(F)cc3)c(C)nc12 | 0.822 | -3.22

Fetched by structure from the entries so far:
compound | CBX7 AlphaScr | CBX7 AlphaScr z-score
Cc1c(NC(=O)c2ccc(OC(C)C)cc2)cccc1-c1nc2ncccc2o1 | 0.821 | -1.95
CC(C)c1ccc(NC(=O)C(NC(=O)c2cnccn2)c2ccccc2)cc1 (configuration not stated) | 0.83 | -1.72
CCc1cccc(NC(=O)C2c3ccccc3C(=O)N3CCc4ccccc4C23)c1 (configuration not stated) | 0.967 | -0.0332
COc1ccccc1CN1C(=O)c2ccccc2C1C(=O)NC1CCCC1 (configuration not stated) | 1.02 | 0.921
CCN(CC)S(=O)(=O)c1ccc(-c2csc(Nc3ccc(F)cc3)n2)cc1 | 0.782 | -1.56
Nc1nonc1-c1noc(-c2ccc(Br)cc2)n1 | 1.08 | 0.806

The listing picks up, starting 3 compounds before the break.
compound | CBX7 AlphaScr | CBX7 AlphaScr z-score
CC(C)c1ccc(NC(=O)C(NC(=O)c2cnccn2)c2ccccc2)cc1 (configuration not stated) | 0.83 | -1.72
CCc1cccc(NC(=O)C2c3ccccc3C(=O)N3CCc4ccccc4C23)c1 (configuration not stated) | 0.967 | -0.0332
CCCNC(=O)c1cnn2c(C)c(Cc3ccc(F)cc3)c(C)nc12 | 0.822 | -3.22
CCN(c1ccc(C)c(C)c1)S(=O)(=O)c1ccc2c(c1)CCN2C(=O)CCC(=O)O | 0.941 | -0.967
CCc1cccc(NC(=O)C2CCN(C(=O)c3cnn(-c4ccccc4)c3-n3cccc3)CC2)c1 | 0.838 | -1.23
Cc1ccc(NC(=O)NCC(c2cccnc2)N2CCOCC2)cc1 (configuration not stated) | 1.03 | 0.259
COc1ccc2nc(N3CCCC(C(=O)NCCc4ccc(OC)c(OC)c4)C3)sc2c1 (configuration not stated) | 0.844 | -2.63
O=C(Nc1cccc(-c2nc3cc(Cl)cc(Cl)c3o2)c1)c1cccnc1 | 0.963 | -0.439
COc1ccccc1-c1cc2nc(C)c(CCC(=O)NCCCc3ccccc3)c(C)n2n1 | 1.06 | 2.21
COc1ccc(OC)c(NC(=O)CCc2c(C)nc3cc(-c4ccc(Cl)cc4)nn3c2C)c1 | 1.07 | 1.47
Nc1nonc1-c1noc(COc2ccc(F)cc2F)n1 | 1.05 | 1.3
Cc1nc2cc(-c3ccccc3)nn2c(C)c1CCC(=O)Nc1ccc2c(c1)OCCO2 | 1.02 | 0.648
OCCn1c(Cc2ccccc2)nc2ccccc21 | 1.06 | 2.44
Cc1cc(NC(=O)C2CCCN(C(=O)c3cnn(-c4ccccc4)c3-n3cccc3)C2)no1 (configuration not stated) | 0.98 | -0.981
COc1ccccc1NC(=O)c1c(NC(=O)c2ccccc2)sc2c1CCC2 | 1.18 | 0.421
CCOC(=O)c1cc(-c2ccc(OC)cc2)n(CCC(=O)NC(C)CC)c1C (configuration not stated) | 0.927 | -1.74
COc1cc(Cl)cc(OC)c1NC(=O)Nc1ccc2snnc2c1 | 1.02 | 0.959
Cc1ccccc1N1C(=O)c2ccccc2C1Nc1ccccc1Br (configuration not stated) | 0.962 | -1.27
CCc1ccccc1N(CC)C(=O)CCC(=O)Nc1ccc2nc(N3CCOCC3)cc(C)c2c1 | 0.81 | -0.251
CCOC(=O)C1CCCN(C(=O)Cc2c(C(=O)O)[nH]c3ccc(Cl)cc23)C1 (configuration not stated) | 1.04 | 1.21
COc1ccc(-n2c3c(cc(C(N)=O)c2=O)C(=O)CC(C)(C)C3)cc1 | 1.13 | 0.55
N#Cc1nc(COc2ccccc2F)oc1N1CCN(c2ccccc2)CC1 | 0.48* | -6.59*
CCCC(=O)Nc1cc(-c2nnc(OC)c3ccccc23)ccc1N1CCCCC1 | 1.03 | 0.912

(next part)
compound | CBX7 AlphaScr | CBX7 AlphaScr z-score
Cc1ccc(Cn2c(-c3cccs3)nc3ccccc32)cc1 | 0.974 | -0.768
O=C(CN1C(=O)CSc2ccc(S(=O)(=O)N3CCCCCC3)cc21)N1CCOCC1 | 1.01 | 0.265
CCCCNC(=O)CNC(=O)c1nn(-c2ccc(OC)cc2)c(=O)c2ccccc12 | 1.05 | 1.09
O=C1CCc2cc(S(=O)(=O)N3CCC(Cc4ccccc4)CC3)ccc2N1 | 0.883 | -2.8
CC(=O)Nc1ccccc1-c1nc2ccc(C(=O)NC3CCCCC3C)cc2[nH]c1=O (configuration not stated) | 0.964 | -0.694
CCc1ccc2c(c1)c(=O)c(S(=O)(=O)c1ccccc1)cn2CC(=O)Nc1ccc(Cl)cc1 | 0.882 | -3.85
CCCOc1ccccc1C1CC(=O)Nc2cc(OCC)c(OCC)cc21 (configuration not stated) | 1.03 | 0.169
Cc1cccc(NC(=O)C(Cc2ccccc2)NS(=O)(=O)c2cccc3cccnc23)c1 (configuration not stated) | 0.891 | -0.927
O=C(CC1Nc2ccccc2NC1=O)Nc1ccccc1Br (configuration not stated) | 0.965 | -0.863
COc1ccc(OC)c(C(=O)c2oc3ccccc3c2NC(=O)CSc2ccccn2)c1 | 0.972 | -0.55
COC(=O)c1c(C)nc2n(CCN3CCOCC3)c3ccccc3n12 | 0.914 | -0.941
COc1cc(OC)cc(C(=O)N2CC(=O)Nc3ccc(C)cc3C2c2ccc(F)cc2)c1 (configuration not stated) | 0.682 | -5.79
O=C(C1CC(=O)N(C2CCCC2)C1)N1CCN(c2ccccc2F)CC1 (configuration not stated) | 1.03 | 1.28
COc1ccc(Nc2ncccc2C(=O)NCCC(C)C)cc1 | 0.949 | -2.25
CCC(=O)N1CCc2cc(S(=O)(=O)NCCC(=O)N3CCC(Cc4ccccc4)CC3)ccc21 | 1.02 | 0.702
Cc1nc(NS(=O)(=O)c2ccccc2)sc1C(=O)Nc1ccccc1 | 1 | 0.00214
Cc1ccccc1Cn1c(CNC(=O)c2ccccc2)nc2ccccc21 | 0.938 | -0.719
O=C(NCCCN1CCN(c2ccccc2F)CC1)Nc1cccc2ccccc12 | 1.01 | 0.132
O=C(Nc1ccc(F)cc1)N1CCN(c2nc3ccccc3s2)CC1 | 1.04 | 1.75
Cc1ccc(CNC(=O)c2cnc3ccccn3c2=O)cc1 | 0.813 | -2.65

(further entries)
compound | CBX7 AlphaScr | CBX7 AlphaScr z-score
O=C(Cn1nc(Cc2cccnc2)c2ccccc2c1=O)NCc1ccc(F)cc1 | 1.1 | 1.02
CCOC(=O)N1CCN(c2c(NCCCN3CCN(CC)CC3)c(=O)c2=O)CC1 | 0.994 | -0.112
CCc1ccc2c(c1)c(=O)c(S(=O)(=O)c1ccc(F)cc1)cn2CC(=O)Nc1ccc(Cl)cc1 | 0.916 | -2.73
O=C(NCc1ccccn1)c1ccc2c(c1)N(Cc1ccc(Cl)cc1)C(=O)c1ccccc1S2(=O)=O | 0.734 | -2.9
Cc1sc2ncn(CC(=O)NCc3cccnc3)c(=O)c2c1S(=O)(=O)N1CCC(C)CC1 | 1.33 | 3.29
O=C(c1ccc(Cl)c(NC2=NC3CS(=O)(=O)CC3S2)c1)N1CCN(c2ccccc2)CC1 (configuration not stated) | 1.23 | 4.28
COc1ccc(-n2c(Cc3cc(=O)[nH]c(=O)[nH]3)nnc2SCC(=O)Nc2cc(C)on2)cc1 | 0.98 | -0.505
Cc1ccc(CN2CCSc3ccc(C(=O)O)cc32)cc1 | 1.27 | 2.03
Cc1nc2sc(C(=O)Nc3cccc(C(F)(F)F)c3)c(N)c2c2c1CCCC2 | 1.07 | 2.48
CCOc1ccc(S(=O)(=O)Nc2ccccc2C)cc1-c1nc2c(C(C)(C)C)nn(C)c2c(=O)[nH]1 | 0.908 | -1.24
Cc1ccc(NC(=O)Cn2c(Cc3ccccc3)nc3sc4c(c3c2=O)CCCC4)c(C)c1 | 0.987 | -0.219
CCOC(=O)Nc1ccc2c(c1)N(C(=O)Nc1ccccc1)c1ccccc1CC2 | 1.08 | 0.495
O=C(CCc1nc(-c2cccs2)no1)Nc1ccccn1 | 0.859 | -0.141
O=C(CCc1ccccc1)Nc1c(-c2ccccc2)nc2ccccn12 | 1 | 0.0133
C=C(C)Cn1c(-c2ccc(OC)c(OC)c2)nc2ccccc21 | 0.98 | -1.04
CC1CCCCC1NC(=O)CN1C(=O)COc2ccc(S(=O)(=O)N3CCCCCC3)cc21 (configuration not stated) | 1.07 | 0.814
CCN1CCN(CCCNC(=O)c2cc(-c3ccc(C)c(C)c3)nc3ccccc23)CC1 | 1.19 | 4.29
Cc1ccc(NC(=O)c2n[nH]c(=O)c3ccccc23)cc1Cl | 1.08 | 0.489
Cc1sc2ncnc(Oc3ccc4ccccc4c3)c2c1C | 1.01 | 0.02
CCc1ccc(N2CC(c3nc4ccccc4n3CCc3ccccc3)CC2=O)cc1 (configuration not stated) | 0.81 | -4.33

Further compounds:
compound | CBX7 AlphaScr | CBX7 AlphaScr z-score
Cc1ccc(-c2csc(NC(=O)C(C)N3C(=O)c4ccccc4C3=O)n2)cc1 (configuration not stated) | 0.832 | -3.57
O=C1CCCC2=C1C(c1ccc(O)c(O)c1)Nc1ccc3ncccc3c12 (configuration not stated) | 0.985 | -0.369
CC(C)c1ccc(-c2csc(NC(=O)c3ccc(F)cc3)n2)cc1 | 1.02 | 0.234
COc1cccc(NC(=O)Cc2cn(C)c3ccccc23)c1 | 1.07 | 0.97
